Screens (PubChem)
AID504770 – growth inhibition of E. coli YBA685, primary screen, V. cholerae RctB inhibitors; E. coli YBA685 rctB-dependent plasmid, OD600 growth, 3 h; active compounds read low; z-score (no concentration beside the values); actives 0.27% (n = 130,000); AID 504770, 2011;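 active means z-score under -2 on both plates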;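 further: wells of about 30 µL received 100 nL stock; score is relative to mean and SD of the test wells; the first replicate is given; strong numbers were not always called active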
CapD inh – Bacillus anthracis CapD inhibitors, primary screen, biochemical, fluorescence intensity. actives 0.23% (n = 140,000). CapD gamma-glutamyltranspeptidase (Bacillus anthracis Ames Ancestor). purified CapD enzyme, fluorescence intensity read-out; active compounds read low; some hits fall short of the stated cut. z-score (test concentration not listed). AID 492967, 2010;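 active means z-score under -4 in either of two replicates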;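 further: stock transfer was 100 nL into about 40 µL; score is relative to mean and spread of the plate; one replicate is shown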
* marks the source's active call; other numbers are inactive results; & = joins results of further samples.

Screening COCc1cc(C)nc2sc(C(=O)OC)c(N)c12 returned AID504770 0 and CapD inh 2.
For C=CCN1C(=O)C2(NC(=O)c3ccccc3N2)c2ccccc21 (centres undefined) the results were AID504770 -0.5.
CC(C)(C)OC(=O)/N=C(\N)n1cccn1 was read as AID504770 -0.35 and CapD inh 0.09.
For Nc1ccccc1C(=O)N/N=C/c1cc(Br)ccc1O the results were CapD inh 4.4.
Screening Cc1cc(C)c2c(n1)sc1c(SCC(=O)c3ccc(Br)cc3)ncnc12 returned AID504770 0.15 and CapD inh 0.055.
`CN1CCN(/N=C/c2nc(-c3ccccc3)n3ccccc23)CC1` gave AID504770 1.1 and CapD inh 0.81.
O=C(O)CCNS(=O)(=O)c1ccc(Br)cc1 was read as AID504770 -0.65 and CapD inh 0.25.
Screening CC1CN(C(=O)CC#N)CC(C)O1 (centres undefined) returned CapD inh -0.3.
Screening COc1cccc(NC(=O)Cn2nc(-c3ccccc3)ccc2=O)c1 returned AID504770 -0.35 and CapD inh 0.29.
For CN(CC(=O)O)c1ccccc1C(=O)O the results were AID504770 -1.3 and CapD inh 0.24.
Screening Cc1nc(N2CCN(Cc3ccc4c(c3)OCO4)CC2)c2c3c(sc2n1)CCCC3 returned CapD inh -0.17.
Screening CCC(=O)Nc1cc(-c2nc3cc(OC)ccc3o2)ccc1C returned AID504770 1.1 and CapD inh 47.
For Cc1cc(C)n(CCO)c(=O)n1 the results were AID504770 0.95 and CapD inh 0.075.
For O=C(NC1CCCc2ccccc21)C1=NN(c2ccccc2)C(=O)CC1 (centres undefined) the results were AID504770 0.2.
For CCc1nc(N)nc(N)c1-c1ccc(Cl)cc1 the results were AID504770 -1.2 and CapD inh 1.3&-0.37.
For CNC(=O)c1[nH]nc2c1CCc1ccccc1-2 the results were AID504770 -0.1 and CapD inh 1.5.
Screening CCN(CC)C(=O)c1cn(CCC#N)nc1-c1ccc2ccccc2c1 returned AID504770 0.45.
CCOC(=O)C1=C(C)N=c2s/c(=C\c3cc([N+](=O)[O-])ccc3N3CCOCC3)c(=O)n2C1c1ccc(N(C)C)cc1 (centres undefined) was read as CapD inh -0.12.
Screening CC(C)N1CCN(S(=O)(=O)c2ccccc2Cl)CC1 returned CapD inh -0.92.
Screening COC(=O)C1=C(C)NC2=C(C(=O)CCC2)C1c1ccccc1N1CCOCC1 (centres undefined) returned AID504770 2.4 and CapD inh 0.87.
For CCN(CC(=O)NCc1cccs1)C(=O)c1cc2c(s1)CCCC2 the results were AID504770 0.95.
COc1c(-c2ccc(C)cc2)nc2ccccn12 was read as AID504770 -0.6 and CapD inh 109.
CCOC(=O)c1cc2cc(-c3c(C)oc4cc(O)ccc4c3=O)ccc2o1 was read as AID504770 -0.35 and CapD inh 0.23.
COc1ccc(-c2occ(C(=O)O)c2C(=O)O)cc1 was read as AID504770 0.2 and CapD inh 2.9.

Ordered by formula weight (highest first): part of the list above.
CCOC(=O)C1=C(C)N=c2s/c(=C\c3cc([N+](=O)[O-])ccc3N3CCOCC3)c(=O)n2C1c1ccc(N(C)C)cc1 (centres undefined) was read as CapD inh -0.12.
Screening Cc1nc(N2CCN(Cc3ccc4c(c3)OCO4)CC2)c2c3c(sc2n1)CCCC3 returned CapD inh -0.17.
Screening COC(=O)C1=C(C)NC2=C(C(=O)CCC2)C1c1ccccc1N1CCOCC1 (centres undefined) returned AID504770 2.4 and CapD inh 0.87.
CCOC(=O)c1cc2cc(-c3c(C)oc4cc(O)ccc4c3=O)ccc2o1 was read as AID504770 -0.35 and CapD inh 0.23.
For CCN(CC(=O)NCc1cccs1)C(=O)c1cc2c(s1)CCCC2 the results were AID504770 0.95.
For O=C(NC1CCCc2ccccc21)C1=NN(c2ccccc2)C(=O)CC1 (centres undefined) the results were AID504770 0.2.
Screening CCN(CC)C(=O)c1cn(CCC#N)nc1-c1ccc2ccccc2c1 returned AID504770 0.45.
Screening COc1cccc(NC(=O)Cn2nc(-c3ccccc3)ccc2=O)c1 returned AID504770 -0.35 and CapD inh 0.29.
`CN1CCN(/N=C/c2nc(-c3ccccc3)n3ccccc23)CC1` gave AID504770 1.1 and CapD inh 0.81.
Screening CCC(=O)Nc1cc(-c2nc3cc(OC)ccc3o2)ccc1C returned AID504770 1.1 and CapD inh 47.
O=C(O)CCNS(=O)(=O)c1ccc(Br)cc1 was read as AID504770 -0.65 and CapD inh 0.25.
Screening CC(C)N1CCN(S(=O)(=O)c2ccccc2Cl)CC1 returned CapD inh -0.92.
COc1ccc(-c2occ(C(=O)O)c2C(=O)O)cc1 was read as AID504770 0.2 and CapD inh 2.9.
For CCc1nc(N)nc(N)c1-c1ccc(Cl)cc1 the results were AID504770 -1.2 and CapD inh 1.3&-0.37.
COc1c(-c2ccc(C)cc2)nc2ccccn12 was read as AID504770 -0.6 and CapD inh 109.
Screening CC1CN(C(=O)CC#N)CC(C)O1 (centres undefined) returned CapD inh -0.3.
For Cc1cc(C)n(CCO)c(=O)n1 the results were AID504770 0.95 and CapD inh 0.075.

(more compounds)
`COc1ccc(S(=O)(=O)N(CCC#N)CCN2CCOCC2)cc1Br` gave AID504770 -0.3.
Screening CCOC(=O)c1ccccc1NC1OC(=O)c2ccccc21 (centres undefined) returned AID504770 0.15 and CapD inh 64.
COc1ccc2c(c1)c1c(c(=O)n(-c3ccc(C)cc3)c(=O)n1CC(=O)NCC1CCCO1)n2C (centres undefined) was read as AID504770 0.45 and CapD inh 16.
COC(CNC(=O)c1ccc2c(c1)N(Cc1ccccc1F)C(=O)c1ccccc1S2=O)OC (centres undefined) was read as AID504770 -0.2 and CapD inh 4.9.
`CC(C)(C)c1cc2ncnc(NC3CCN(Cc4ccccc4)CC3)c2s1` gave AID504770 1.4 and CapD inh 0.08.
CC(C)Cn1c(C(C)NC(=O)c2ccccc2)nc2ccccc21 (centres undefined) was read as AID504770 0.55 and CapD inh 0.26.
`COc1cc(OC)nc(C(c2ccccc2)N2CCN(C(=O)c3c(F)cccc3F)CC2)n1` (centres undefined) gave CapD inh -0.33.
For C=CCNC(=O)c1cc2c(=O)n3ccccc3nc2n(CCC)c1=N the results were AID504770 -0.8 and CapD inh 0.065.
For CNCCn1ccc2ccccc21 the results were AID504770 -0.05&-0.4 and CapD inh 0.45&-0.035.
Screening CC(C)N(CCc1ccncc1)C(=S)NCC1CCCO1 (centres undefined) returned AID504770 1.1 and CapD inh 0.64.
CONC(=O)Nc1ccc(C)cc1 was read as AID504770 0.
For CCOc1ccc(NC(=O)COc2ncnc3ccccc23)cc1 the results were AID504770 -0.95.
For CCOC(=O)/C=C(\C)N1CCN(c2ccccc2)CC1 the results were AID504770 -0.45.
C/C(=N/NC(=O)c1ccoc1C)c1ccc(NC(=O)c2ccco2)cc1 was read as AID504770 0.8 and CapD inh -1.2.
For COC(=O)c1sccc1NC(=O)c1nc(-c2ccc(Cl)cc2)n2c1CCCCC2 the results were AID504770 1 and CapD inh -0.97.
For CC1CN(c2nnnn2-c2ccccc2)CC(C)O1 (centres undefined) the results were AID504770 1.4 and CapD inh -0.14.
For CSc1cccc(NC(=O)CC#N)c1 the results were AID504770 -0.8 and CapD inh 0.23.
CCC(=O)Nc1nc2nc(-c3ccccc3)cc(=O)n2[nH]1 was read as AID504770 0.75 and CapD inh 2.4.
Cc1cc(O)c(C=Nc2ccccc2Br)c(=O)o1 was read as AID504770 0.1 and CapD inh -0.46.
Screening CCOC(=O)CC(Sc1ccccc1N)c1cc(OC)c(OC)c(OC)c1 (centres undefined) returned AID504770 -0.4 and CapD inh -0.54.
COc1ccc(COC(=O)NCCc2c[nH]c3ccc(Cl)cc23)cc1 was read as CapD inh 0.33.
For Nc1nc(Cn2nnc(-c3ccccc3Cl)n2)nc(N2CCOCC2)n1 the results were CapD inh 0.11.
Screening CCC(=O)Oc1ccc(/C=C2\C(=O)N(c3cccc(C(F)(F)F)c3)N=C2C)cc1OC returned CapD inh 0.48.
`CC(=O)Nc1ccc(Cl)cc1C(=O)O` gave AID504770 0.3 and CapD inh 3.

Random excerpt: 2 compounds from above.
CCC(=O)Nc1nc2nc(-c3ccccc3)cc(=O)n2[nH]1 was read as AID504770 0.75 and CapD inh 2.4.
COc1ccc(COC(=O)NCCc2c[nH]c3ccc(Cl)cc23)cc1 was read as CapD inh 0.33.

Carrying on.
Screening C=C(C)CC1C(=O)N(S(=O)(=O)c2ccc(Cl)cc2)N=C1C (centres undefined) returned AID504770 -0.35 and CapD inh 0.19.
Screening Cn1c(CCN)nc2ccccc21 returned AID504770 1.6 and CapD inh -2.9.
Screening N#CC1=C(N)OC2=C(C(=O)CC(c3ccccc3)C2)C1c1ccc([N+](=O)[O-])s1 (centres undefined) returned CapD inh -0.21.
For Cc1cc(C)cc(C(=O)Nn2cnnc2)c1 the results were AID504770 1.6 and CapD inh -0.025.
For CN(C)c1ccc(/C=N/NC(=O)c2ccc3nonc3c2)cc1 the results were CapD inh 1.6.
Screening CC(c1ccco1)N(C(=O)c1ccccc1F)c1ccccn1 (centres undefined) returned AID504770 0.1 and CapD inh 4.
For CC1CCN(C(=O)c2cccc(-c3nnc(-c4ccccc4)o3)c2)CC1 the results were AID504770 -0.45 and CapD inh -0.04.
CCOc1ncnc2c1sc1nc(N3CCOCC3)c3c(c12)CCCC3 was read as CapD inh 4.8.
`CCOC(=O)c1c(C)n(-c2ccccc2)c2c1cc(OC(=O)c1ccc([N+](=O)[O-])cc1)c1ccccc12` gave CapD inh -0.26.
`COc1ccc(Cl)cc1S(=O)(=O)N1CCN(c2ccc([N+](=O)[O-])cc2)CC1` gave CapD inh 0.055.
O=C(c1ccccc1)C1CCN(c2ccc(C(F)(F)F)cc2[N+](=O)[O-])CC1 was read as CapD inh -0.53.
`CCC(=O)Nc1ccccc1C(=O)N1CCCC1` gave AID504770 1.5 and CapD inh -0.01.
`COc1nc(N(C)C)nc(N(C#N)CN2C(=O)c3ccccc3S2(=O)=O)n1` gave AID504770 1.4.
CCCN(CCC)C(=O)Cn1c(=O)oc2cc(S(=O)(=O)N3CC(C)CC(C)C3)ccc21 (centres undefined) was read as AID504770 1.4 and CapD inh 1.8.
Screening C=CCc1ccc(OCCOc2c(Cl)cc(-c3nc4sc5c(c4c(=O)[nH]3)CCCC5)cc2OCC)c(OC)c1 returned CapD inh -0.095.
For C/C=C/c1ccc(OC)c(OC(C)=O)c1 the results were AID504770 0.85 and CapD inh -0.34.
Screening O=C(Cc1ccccc1)c1c[nH]c(C(=O)NCCCn2ccnc2)c1 returned AID504770 -0.45 and CapD inh 0.33.
COc1ccccc1Nc1ncc(-c2cccs2)s1 was read as AID504770 -0.55 and CapD inh inactive.
For COCc1nc2ccc(C)cc2c2c1C(=O)N(CCC1CCCN1C)C2=O (centres undefined) the results were CapD inh 1.5.
Screening CSc1nc2cc(-c3ccccc3)nn2c(N)c1S(=O)(=O)C(C)C returned AID504770 0.05 and CapD inh -0.93.
Screening COc1ccc(N=Nc2cnc(-c3ccccc3)nc2-c2ccc(OC)cc2)cc1 returned CapD inh 0.12.
For COc1cc(C(F)(F)F)cc(C(F)(F)F)c1C(N)=O the results were AID504770 -0.2 and CapD inh -0.09.
`CCNC(=O)N1CCC(c2nnc(-c3ccc(F)cc3)o2)CC1` gave CapD inh -0.41.
`Cc1ccc(S(=O)(=O)Nc2ccccc2-c2nnc(-c3ccc(Cl)cc3)o2)cc1` gave AID504770 -0.5 and CapD inh -0.23.
`N#Cc1ccccc1CSC1=NCCS1` gave AID504770 1.1 and CapD inh -0.31.
For CN(C)c1ccc2c3c(cccc13)C(=O)N(c1ccccc1)C2=O the results were AID504770 -0.65 and CapD inh 0.17.
N#CC1=C(N)C(C#N)(C#N)C(c2ccc(OC(F)F)cc2)C=C1C1CC1 (centres undefined) was read as AID504770 0.35.
`CCN(C(=O)COc1ccc(C)cc1C)C1CCS(=O)(=O)C1` (centres undefined) gave AID504770 -0.5.
N#CCCN1CCC(c2nnc(-c3ccccc3)o2)CC1 was read as CapD inh -0.11.
COc1cc(-c2nc3ccccc3c(=O)n2NCc2ccc(OC(F)F)cc2)cc(OC)c1OC was read as CapD inh 0.38.
c1cncc(-c2nc3ccccn3c2Nc2ccc3c(c2)OCCO3)c1 was read as AID504770 -0.3 and CapD inh 8.9.
For COCCNC(=S)Nc1nc(OC)cc(OC)n1 the results were AID504770 -1 and CapD inh -1.4.
CCOc1ccc(C(N)=O)cc1OC was read as AID504770 -0.1.
For COc1cc(OC)c(CNc2ccc3cn[nH]c3c2)cc1Br the results were AID504770 0.1 and CapD inh 6.5.
Screening Fc1cccc(Cl)c1CN1CCN(CCCNc2nc(-c3ccccc3)ns2)CC1 returned AID504770 0 and CapD inh -0.49.
`Cc1ccc(CC2SC(=O)NC2=O)cc1Cl` (centres undefined) gave AID504770 2.1 and CapD inh 0.07.
N#CCSc1nc2scc(-c3cccs3)c2c(=O)n1CCc1ccccc1 was read as AID504770 0.
`COc1cc(C(=O)NCC(c2ccccc2)c2c[nH]c3ccccc23)cc(OC)c1OC` (centres undefined) gave AID504770 0.95 and CapD inh 0.53.
`COc1ccc(/C(O)=C/c2nc3ccc(C(=O)N4CCOCC4)cc3[nH]c2=O)cc1OC` gave AID504770 2 and CapD inh 0.095.
Screening Cc1c(C(=O)O)oc2c1-c1[nH]ncc1CC2 returned AID504770 -0.55 and CapD inh 1.4.
For CSc1ccccc1C(=O)Nc1ccc(Cl)cc1 the results were AID504770 -0.45 and CapD inh -0.14.
Screening O=S(=O)(Cc1cccc(C(F)(F)F)c1)NCc1cccs1 returned AID504770 -0.3 and CapD inh -1.4.
`O=C(O)C1C2C=CC(C2)C1C(=O)NCc1cccs1` (centres undefined) gave AID504770 -0.35.
`CC1(C)CC(C)(c2ccc(OC(=O)c3ccccc3)cc2OC(=O)c2ccccc2)N(c2ccccc2)C(=S)N1` (centres undefined) gave CapD inh 0.32.
`COC(CN(C(C)=O)C1CCCc2c1[nH]c1ccc(C)cc21)OC` (centres undefined) gave AID504770 -0.75 and CapD inh 0.39.
NC(=O)C1CCCN1c1nc(-c2cccs2)nc2ccccc12 (centres undefined) was read as AID504770 -0.45.
Screening COc1ccc(/C=N/OCC(=O)Nc2oc(-c3ccccc3)c(-c3ccccc3)c2C#N)cc1 returned CapD inh 0.56.

Random draw from the library; about 0.37% have a hit in one of these screens.
